Compound activity (PubChem BioAssay)
E coli growth: blocks Escherichia coli growth | OD600 absorbance (test concentration not listed) | 330,000 tested, 0.21% active | OD600, 23 h; stronger effect = lower value | AID 1053175;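 active = OD600 absorbance below the run mean of sample wells minus 3.6 SD, in any replicate, cut at about 0.56 in these data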;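 note: stock transfer was 300 nL into about 60 µL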
Vif TR-FRET: HIV-1 Vif–A3G interaction blockers – biochemical, TR-FRET, GST-Vif 1-94, biotin-A3G peptide, dose response retest, primary screen (AID 1117319); TR-FRET GST-Vif / biotin-A3G peptide binding; higher % means a stronger effect; test concentration not given here; strong numbers were not always called active; one-dose inhibition, %; IC50 in µM for titrated hits; 260,000 tested, 0.57% active;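 active = above the screen mean plus three standard deviations and confirmed in dose response; inconclusive = results disagree or hit not tested in dose response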;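 note: Vif residues 1-94 fused to GST binding biotinylated APOBEC3G peptide 110-148; 0% = full assay without inhibitor and 100% = GST in place of GST-Vif; retest series ran down from 100 µM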
HNF4A DNA FP: change in binding of human HNF4 alpha to DNA; P41235; HNF4a-FITC DNA binding, fluorescence polarization, 1 h; activity change, % at 10 µM; 360,000 tested, 0.3% active; AID 1224865; in the data active = activity change above about 30%, passing the limit was not always enough;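 note: controls were the assay level and a saturating level of protein; the project sought stronger binding though the title names inhibitors; some compounds called inactive have numbers as strong as hits; positive values seem to mean higher polarization but the record does not say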
FGF22 binding: binders of recombinant human FGF22 by thermal shift | Q9HCT0 | 340,000 tested, 1.5% active | SYPRO orange fluorescence; percent of sucrose octasulfate shift, DMSO zero | calls only at 9.99 µM;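 active = melting point raised past a set limit in the mean and every replicate; inconclusive = no clear call; three in four hits are not shown here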
Target sequence (Q9HCT0 whole entry, looked up): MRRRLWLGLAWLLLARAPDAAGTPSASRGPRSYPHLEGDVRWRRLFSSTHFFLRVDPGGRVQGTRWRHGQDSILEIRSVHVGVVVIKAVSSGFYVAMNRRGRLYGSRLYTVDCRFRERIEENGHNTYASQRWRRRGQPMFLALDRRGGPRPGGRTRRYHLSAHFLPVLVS
ALR H2O2 inh: human ALR oxidase inhibition via reduced H2O2. inhibition, % (no concentration beside the values). AID 485317. 290,000 tested, 3.8% active. purified ALR, DTT oxidation, H2O2 HRP-luminol luminescence;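 active = mean and each replicate at 75% or more; inconclusive = only one of the two met; inactive = neither met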;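 note: stock transfer was 7.5 nL into about 7.5 µL; 0% = neutral wells and 100% = wells with inactivated enzyme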
Target sequence (P55789 whole entry, looked up): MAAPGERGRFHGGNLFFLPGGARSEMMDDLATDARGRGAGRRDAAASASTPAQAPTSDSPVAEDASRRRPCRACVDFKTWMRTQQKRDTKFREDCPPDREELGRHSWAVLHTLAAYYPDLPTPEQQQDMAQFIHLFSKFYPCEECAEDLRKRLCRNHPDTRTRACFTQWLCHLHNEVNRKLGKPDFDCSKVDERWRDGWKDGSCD
rRNA inh HTS: inhibits bacterial ribosomal RNA function over humanized ribosomes | E. coli WT GFP vs humanized-ribosome RFP mutants, fluorescence, 24 h; stronger effect = lower value; DMSO median 0, no signal -100 | GFP signal change (wild-type ribosome), % (no concentration beside the values) | 350,000 tested, 1.6% active;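 active = significant combined selectivity score with lowered wild-type GFP, culture density cut under 30%, mutant RFP and density less affected; inactive = any of these conditions unmet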; note: one replicate is shown; some compounds called inactive have numbers as strong as hits
AF4-AF9 inh: blocks AF4 peptide binding to human AF9 | 350,000 tested, 0.47% active | AlphaScreen, biotin-AF4 peptide binding to FLAG-AF9 | P42568 | AID 651704 | inhibition, % at 10 µM;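 active = every replicate reaching a set inhibition limit, whatever the replicate mean, cut at about 25% in these data; inconclusive = mean inhibition reaches that limit but some replicates miss it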;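 note: 0% = plate neutral control median and 100% = total signal loss; the record names both 10 and 1 µM as test concentration; the first replicate is given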
Target sequence (P42568 whole entry, looked up): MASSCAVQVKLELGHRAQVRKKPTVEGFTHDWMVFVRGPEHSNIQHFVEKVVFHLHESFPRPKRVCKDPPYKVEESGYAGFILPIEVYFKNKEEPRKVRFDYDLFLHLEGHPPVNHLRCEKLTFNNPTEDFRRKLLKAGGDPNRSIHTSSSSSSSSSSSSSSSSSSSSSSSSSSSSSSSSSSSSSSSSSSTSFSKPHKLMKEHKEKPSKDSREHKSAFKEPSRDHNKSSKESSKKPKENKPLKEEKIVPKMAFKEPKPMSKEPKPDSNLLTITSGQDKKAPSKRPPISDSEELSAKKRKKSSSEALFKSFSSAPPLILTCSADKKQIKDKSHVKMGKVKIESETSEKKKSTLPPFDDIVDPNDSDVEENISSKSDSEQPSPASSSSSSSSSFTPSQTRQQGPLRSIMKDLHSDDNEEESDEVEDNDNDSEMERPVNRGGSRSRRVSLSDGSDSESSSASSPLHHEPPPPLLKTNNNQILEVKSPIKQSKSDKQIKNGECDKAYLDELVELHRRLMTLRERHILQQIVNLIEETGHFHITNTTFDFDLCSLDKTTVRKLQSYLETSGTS
rRNA inh HTS OD600: also measured in rRNA inh HTS; calls as there; OD600 change, %; measured here: OD600 growth;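 optical density of the mix in the first replicate; 0 = DMSO median and -100 = no signal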
rRNA inh HTS RFP: recorded beside rRNA inh HTS, whose call it bears; RFP signal change, %; measured here: RFP humanized mutant strains;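 first replicate; 0 = DMSO median and -100 = no signal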
* = called active by the depositor; i = inactive; ? = inconclusive; . = no result given; & = joins results of further samples. A portion of the library; the hit share may differ from the screen's.

mol,E coli growth,Vif TR-FRET,HNF4A DNA FP,FGF22 binding,ALR H2O2 inh,rRNA inh HTS,rRNA inh HTS OD600,rRNA inh HTS RFP,AF4-AF9 inh
COC(=O)CN(c1ccc(C)cc1)S(=O)(=O)c1ccc2c(c1)n(C)c(=O)c(=O)n2C,0.7,1%,-1.9,.,.,.,.,.,.
Cn1c(N)c(C(=O)COC(=O)CCC(=O)c2ccc(F)cc2)c(=O)n(C)c1=O,0.67,.,1.3,i,7,-8,-6,0.2,-0.7
Cc1ccc(C(=O)NCC(=O)OCc2c(F)cccc2Cl)s1,0.71,.,-0.2,i,-4,-2,-3,-1.9,1.1
CC(=O)C1C(c2ccc(F)c(F)c2)NC(=O)NC1(O)C(F)(F)F (stereo not drawn),0.71,?,-2.9,.,-4,.,.,.,.
COc1ccc(NC(=O)C2CC(c3ccccc3O)=NO2)cc1OC (stereo not drawn),0.68,.,-2.3,i,-8,7,14,0.3,2.5
CCOc1ccc(S(=O)(=O)N2CCCCC2)cc1NC(=O)Cc1ccc(OC)cc1,.,-1%,-4.1,i,.,-3,3,0.5,-3.5
C[C@@H]1CN([C@@H](C)CO)C(=O)c2cc(NC(=O)CCC(F)(F)F)ccc2O[C@H]1CN(C)C(=O)Nc1ccc2c(c1)OCO2,.,.,.,i,.,-1,4,0.5,-5.2
CCCc1cc(=O)[nH]c(Nc2ccc(N3CCCCC3)cc2)n1,0.64,6%,-0.1,.,98*,.,.,.,.
C[C@@H]1CN([C@H](C)CO)C(=O)c2cccc(NC(=O)C3CC3)c2O[C@@H]1CN(C)Cc1ccc(Cl)c(Cl)c1,.,.,.,i,.,-3,-11,2.1,2.1
Cc1ccc(C)c(OCCC(=O)OCC(=O)N2c3ccccc3NC(=O)C2(C)C)c1,0.65,17%,-2.5,i,-2,.,.,.,0.1
CCOc1ccccc1NC(=S)N1CCN(c2ccc(OC)cc2)CC1,0.68,-2%,0.3,i,57,-17,-1,-2.4,-4.0
COc1ccc(CN(C)C[C@@H]2OCCCC[C@@H](C)Oc3ccc(NS(=O)(=O)c4cccs4)cc3C(=O)N([C@@H](C)CO)C[C@H]2C)cc1,.,.,.,i,.,2,-2,-1.0,1.5
CCOc1ccc(N(CC(=O)N2CCN(C(=O)CN(c3ccc(OCC)cc3)S(C)(=O)=O)CC2)S(C)(=O)=O)cc1,0.71,-2%,1.9,i,0,17,12,-0.9,-3.3
C[C@@H]1CN([C@H](C)CO)C(=O)Cc2cc(NS(=O)(=O)c3ccc(F)cc3)ccc2O[C@@H]1CN(C)Cc1ccc2c(c1)OCO2,.,.,.,i,.,1,-22,-0.1,0.9
COc1cccc2c1O/C(=N\O)C(C(=O)Nc1cccc(Br)c1)C2 (stereo not drawn),.,-8%,2.4,i,2,-5,-6,-4.6,-0.6
CC(=O)N=c1c(C#N)cc2c(=O)n3ccccc3nc2n1CCCOC(C)C,0.66,?,1.0,i,.,0,-10,3.8,-2.9
CC1(OC(=O)C2CCCC2)C(=O)C=C2C=C(c3ccsc3)N(C3CCCCC3)C=C2C1=O (stereo not drawn),0.63,?,-1.2,i,-16,5,18,7.8,6.8
CN(C)CCCNC(=O)C[C@H]1C=C[C@H](NS(=O)(=O)c2ccccc2)[C@H](CO)O1,.,.,.,i,.,4,-4,-1.2,-1.1
CCC(=O)Nc1ccc(S(=O)(=O)N2CCOCC2)cc1,0.67,20%,1.4,.,-14,-6,3,4.0,-27
CC(=O)Nc1ccc(SCC(=O)c2cc(C)n(Cc3cccs3)c2C)cc1,0.76,12%,0.3,.,-11,.,.,.,.

Part of the list above in another layout.
COc1cccc2c1O/C(=N\O)C(C(=O)Nc1cccc(Br)c1)C2 (stereo not drawn)
  E coli growth = .
  Vif TR-FRET = -8%
  HNF4A DNA FP = 2.4
  FGF22 binding = i
  ALR H2O2 inh = 2
  rRNA inh HTS = -5
  rRNA inh HTS OD600 = -6
  rRNA inh HTS RFP = -4.6
  AF4-AF9 inh = -0.6

COc1ccc(NC(=O)C2CC(c3ccccc3O)=NO2)cc1OC (stereo not drawn)
  E coli growth = 0.68
  Vif TR-FRET = .
  HNF4A DNA FP = -2.3
  FGF22 binding = i
  ALR H2O2 inh = -8
  rRNA inh HTS = 7
  rRNA inh HTS OD600 = 14
  rRNA inh HTS RFP = 0.3
  AF4-AF9 inh = 2.5

CCOc1ccc(S(=O)(=O)N2CCCCC2)cc1NC(=O)Cc1ccc(OC)cc1
  E coli growth = .
  Vif TR-FRET = -1%
  HNF4A DNA FP = -4.1
  FGF22 binding = i
  ALR H2O2 inh = .
  rRNA inh HTS = -3
  rRNA inh HTS OD600 = 3
  rRNA inh HTS RFP = 0.5
  AF4-AF9 inh = -3.5

The results go on:
mol,E coli growth,Vif TR-FRET,HNF4A DNA FP,FGF22 binding,ALR H2O2 inh,rRNA inh HTS,rRNA inh HTS OD600,rRNA inh HTS RFP,AF4-AF9 inh
COc1ccc2sc(-c3ccc(S(C)(=O)=O)cc3)c(C(=O)NCCc3c[nH]c4ccccc34)c2c1,0.69,.,1.4,i,0,3,8,9.9,3.0
C[C@@H]1CN([C@@H](C)CO)C(=O)c2cc(C#CCN(C)C)cnc2O[C@@H]1CN(C)C(=O)Nc1cc(F)ccc1F,.,.,.,i,.,4,7,0.5,0.8
Cc1cccc2cc(CN(Cc3ccc4c(c3)OCO4)Cc3nnnn3C3CCCC3)c(=O)[nH]c12,0.72,11%&12%,0.6,i,-1,-2,-3,-3.1,-6.4
C[C@@H]1CCCCO[C@H](CN(C)C(=O)CCCN(C)C)[C@@H](C)CN([C@H](C)CO)C(=O)c2cc(N(C)C)ccc2O1,.,.,.,i,.,0,8,-6.1,0.3
COc1ccc(N(CC(=O)NN=C2CCN(C)CC2)S(=O)(=O)c2ccccc2)c(OC)c1,0.7,.,2.8,i,8,5,9,-1.0,-1.4
O=C(COC(=O)COc1ccccc1[N+](=O)[O-])Nc1ccccc1Br,0.67,0%,0.1,.,0,.,.,.,.
Cc1ccc(N2C(=O)N3[C@H](c4ccc(Br)cc4)[C@@H]4C(=O)N(C(C)(C)C)C(=O)[C@@H]4[C@]3(C)C2=O)cc1,.,.,4.3,i,0,5,0,3.2,6.8
CC1CCCC(NC(=O)CSc2ncccn2)C1C (stereo not drawn),0.65,.,1.2,i,0,-2,0,0.6,-0.6
Cc1ccccc1-c1ccccc1[C@H]1[C@@H](CO)N(C(=O)c2ccc(F)cc2)[C@H]1C#N,.,.,.,i,.,-3,-42,-2.9,-1.3
CN(C(=O)c1cccc(NC(=O)Cc2ccc(NC(=O)C3CCN(C(=O)C4CC4)CC3)cc2)c1)C1CC1,0.67,.,0.5,.,.,7,-5,5.1,-6.0
O=C(NC(NC(=S)N1CCOCC1)C(Cl)(Cl)Cl)c1cccc2ccccc12 (stereo not drawn),0.68,31%,-4.2,i,-10,-6,-15,-12,-5.0
S=C(NCCc1ccccc1)NCCc1ccccc1,0.7,.,0.4,.,-2,.,.,.,.
O=C(/C=C/c1ccco1)OCC(=O)N1CCCCC1,0.65,32%,-8.1,i,2,14,7,10,-2.8
CCCNC(=O)C[C@H]1CC[C@H]2[C@@H](COC[C@@H](O)CN2C(=O)Nc2cccc(Cl)c2)O1,.,.,.,i,.,-60,-79,-20,-2.4
O=C(C1CCC1)N1CCC(O)(c2cccc(F)c2)CC1,0.69,1%,-1.4,i,.,6,10,-0.7,-0.7
CC(C)S(=O)(=O)c1csc(NC(=O)Nc2ccc(Cl)cc2)c1,0.47*,?,-1.9,i,.,-54,-64,-10,4.8
CCCCC(=O)OCC(=O)Nc1ccc(OC(F)F)cc1,0.75,14%,-0.1,.,0,.,.,.,.
Cc1ccc(NC(=O)/C=C/c2ccc(Cl)cc2)nc1,0.6,0%,0.2,i,-4,9,11,-0.4,0.8
O=C(/C=C/c1ccccc1)NCCC1=CCCCC1,0.65,.,3.6,i,1,-28,-49,-6.4,-2.1
CCOC(=O)CNC(=O)N1CCc2ccc(NC(=O)c3ccccc3OC)cc2C1,0.67,.,-2.8,i,2,2,14,7.2,-2.4

(more compounds)
mol,E coli growth,Vif TR-FRET,HNF4A DNA FP,FGF22 binding,ALR H2O2 inh,rRNA inh HTS,rRNA inh HTS OD600,rRNA inh HTS RFP,AF4-AF9 inh
COCC(=O)N1[C@H](CO)[C@H](c2ccc(C#Cc3ccccc3F)cc2)[C@@H]1C#N,.,.,.,i,.,3,4,5.2,0.9
CC(C)(C)c1ccc(C(=O)N2CCOC23CCCCC3)cc1,.,.,3.7,i,.,7,10,-1.9,0.3
C[C@H](CO)N1C[C@H](C)[C@H](CN(C)S(=O)(=O)c2ccc(F)cc2)Oc2cc(-c3cccc(F)c3)ccc2S1(=O)=O,.,.,.,i,.,0,4,-2.8,-2.5
C[C@H](CO)N1C[C@H](C)[C@H](CN(C)C(=O)C2CCC2)Oc2ncc(-c3cccc(F)c3)cc2C1=O,.,.,.,i,.,-2,2,2.3,-2.8
CC(=O)NS(=O)(=O)c1ccc(NC(=O)c2ccc(S(=O)(=O)N3CCCC3)cc2)cc1,0.69,.,-0.2,i,.,7,13,-1.9,0.1
Cc1ccc(/C(N)=N/OC(=O)COc2cccc3ccccc23)cc1,.,14%,1.0,i,.,.,.,.,1.6
CCON1C(=O)C2(CCCCC2)C(=O)C12C=CCCC2 (stereo not drawn),.,-2%,-0.9,i,.,22,12,2.9,-0.9
CSCCC(c1nnnn1-c1c(C)cccc1C)N1CCN(C/C=C/c2ccccc2)CC1 (stereo not drawn),.,.,3.2,i,.,-42,-68,-0.7,16
O=C(Nc1ccc(F)cc1)C(Cc1ccccc1)n1cccc1 (stereo not drawn),0.62,3%,7.7,i,6,-29,-23,-10,?
O=S(=O)(c1ccccc1)N1CCN(S(=O)(=O)c2ccc(F)cc2)CC1,0.72,.,0.0,i,2,2,2,-2.2,-0.7
CN(C)CC(=O)N[C@@H]1CC[C@@H](CCNC(=O)C2CCC2)O[C@H]1CO,.,.,.,i,.,4,13,-1.6,-2.9
Cc1ccc(C(=O)Nc2nnc(-c3ccncc3)o2)cc1,0.7,11%,-2.3,i,-11,-31,-36,-9.3,-2.2
COCC1CCN(Cc2nc(Cc3ccccc3Cl)no2)CC1,0.7,26%,-1.6,i,20,0,-4,-1.3,-0.6
CCn1c(C)nc2cc(C(N)=O)ccc21,0.68,-2%,-0.8,i,.,-13,-26,2.8,-1.1
COC(=O)c1ccc(COC(=O)CNS(=O)(=O)c2ccccc2)cc1,0.71,.,1.8,i,.,-5,6,2.4,-1.8
CC(C)[C@H](NC(=O)c1ccccc1Cl)C(=O)OCC(=O)NCc1ccc2c(c1)OCO2,.,.,-1.1,i,-15,0,-10,1.1,0.9
CO[C@@H]1CN(C)C(=O)c2ccc(NS(=O)(=O)c3ccc(Cl)cc3)cc2OC[C@H](C)NC[C@H]1C,.,.,.,i,.,0,0,-1.9,-12
O=C(Nc1nc2ccccc2n1Cc1ccc(Cl)cc1)c1ccco1,0.74,-4%,0.5,.,-2,.,.,.,.
Cc1cc(C)nc(Nc2nc(C(N)Cc3ccc(F)cc3)cs2)n1 (stereo not drawn),.,.,-2.8,i,.,7,-21,3.5,4.0
CC(NC(=O)c1ccc(CS(C)(=O)=O)cc1)c1ccc(-n2ccnc2)cc1 (stereo not drawn),0.7,.,0.7,i,2,1,6,-2.0,-0.3
NC(=O)c1nsc(C(=O)N(Cc2ccco2)C(C(=O)NCc2ccccc2)c2ccc(O)cc2)c1N (stereo not drawn),0.69,.,-0.7,i,-6,-4,-18,3.7,4.7
COc1cc(F)ccc1CN1CCC(C(=O)Nc2ccc(Oc3ccccc3)nc2)CC1,0.67,.,1.1,i,-15,11,-4,1.1,0.3
